Measles inh – inhibitors of measles virus growth in infected cells. infected Vero cells, GFP fluorescence, 64 h; stronger effect = lower value. z-score (test concentration not listed). 33,000 compounds, 0.1% hits. AID 745;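 active = z-score under -3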;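 also: score is relative to mean and SD of the compound wells of a plate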
The depositor's hits bear a star. Not all compounds are listed. The share of hits here may be higher or lower than overall.

No.	Measles inh	Molecule
1	-0.34	COc1ccc(C(=O)OCC(=O)n2c(C)c(C)c3ccccc32)cc1
2	4.3	C=CCN1C(=O)c2c(cc(Oc3ccccc3)cc2[N+](=O)[O-])Oc2ccccc21
3	-0.72	COc1cc2c(cc1OC)C(C(=O)Nc1cnc3ccccc3c1)C(c1cccs1)N(C)C2=O (centres undefined)
4	-0.53	CCOc1ccc(-n2c(-c3cn(C)nc3C)n[nH]c2=S)cc1
5	-1.5	O=C(CN1CCN(S(=O)(=O)c2cccc([N+](=O)[O-])c2)CC1)Nc1ccc(Oc2ccccc2)cc1
6	-2.1	COc1ccc(NC(=O)C2C3NC(=S)N(c4ccc(F)cc4)C2(C)Oc2ccccc23)cc1 (centres undefined)
7	1.7	O=[N+]([O-])c1c(NCCCO)cc(N2CCCC2)c2nonc12
8	0.22	Cc1cccc(NC(=O)C(C)(C(F)(F)F)C(F)(F)F)c1
9	-0.07	CN(c1ccc(F)cc1)S(=O)(=O)c1ccc2[nH]cc(C(=O)O)c(=O)c2c1
10	-0.26	O=C(CSc1nc2sc3c(c2c(=O)n1-c1ccccc1)CCC3)Nc1ccccc1
11	0.07	Cc1ccc(C)c(N(CC(=O)N2CCCC2)S(=O)(=O)c2ccccc2)c1
12	0.15	Cc1ccc(-c2cc(C(=O)Nc3ccc([N+](=O)[O-])cc3)c3ccccc3n2)cc1
13	1.3	CCc1c(-c2ccccc2)nc2ccccc2c1C(=O)NCc1ccccc1
14	-0.72	CC1Cc2ccccc2N1S(=O)(=O)c1ccc2c(c1)oc(=O)n2C (centres undefined)
15	-0.6	CCN(CC)CCn1c2ccccc2n2nc(C)c(C(C)=O)c12
16	-0.32	CC1CCc2c(sc(NC(=O)c3ccccc3F)c2C(=O)NCCc2ccccc2)C1 (centres undefined)
17	0.44	O=C(COc1ccc([N+](=O)[O-])cc1)N1CCc2ccccc21
18	-0.69	Cc1cc(C)cc(C(=O)N2CC(=O)Nc3ccc(F)cc3C2c2ccccc2)c1 (centres undefined)
19	0.08	Cc1ccc(NC(=O)C(C(C)C)N2C(=O)c3ccccc3C2=O)c(C)c1 (centres undefined)
20	0.91	COc1ccccc1OCC(=O)Nc1ccc(-c2nnc(-c3ccccc3)o2)cc1
21	-0.1	CC(C)(C)c1ccc(C(=O)Nc2ccc(-c3nc4ccccc4o3)c(O)c2)cc1
22	-0.49	COc1ccc(C2=NN(CCC(=O)NC(C)c3ccc4c(c3)OCCO4)C(=O)CC2)cc1 (centres undefined)
23	0.72	COc1ccc(N2CCN(S(=O)(=O)c3ccc(Br)cc3)CC2)cc1
24	0.03	COC(=O)c1ccc(C(c2ccc(C(=O)OC)cc2)(C(F)(F)F)C(F)(F)F)cc1
25	-0.27	N#CC(c1ccco1)N1CCN(C(C#N)c2ccco2)CC1 (centres undefined)
26	1.1	O=[N+]([O-])c1cccc(NC2OC(C(O)CO)C(O)C2O)c1 (centres undefined)
27	1.7	CC(=O)c1c(C)[nH]c(C(=O)NCCN2CCCCCC2)c1C
28	-0.73	COc1ccc(N2C(=O)CCC(C(=O)NCC3COc4ccccc4O3)C2c2ccc(F)cc2)cc1 (centres undefined)
29	-0.24	COc1ccc(-c2nc3ncccn3c2Nc2ccccc2C)cc1
30	2	COC(=O)c1ccc(C=Nc2ccc3ncccc3c2)cc1

Three compounds from above, ordered by molar mass, falling.
No.	Measles inh	Molecule
2	4.3	C=CCN1C(=O)c2c(cc(Oc3ccccc3)cc2[N+](=O)[O-])Oc2ccccc21
9	-0.07	CN(c1ccc(F)cc1)S(=O)(=O)c1ccc2[nH]cc(C(=O)O)c(=O)c2c1
30	2	COC(=O)c1ccc(C=Nc2ccc3ncccc3c2)cc1

The listing picks up; the 3 compounds before the break are reprinted first.
No.	Measles inh	Molecule
28	-0.73	COc1ccc(N2C(=O)CCC(C(=O)NCC3COc4ccccc4O3)C2c2ccc(F)cc2)cc1 (centres undefined)
29	-0.24	COc1ccc(-c2nc3ncccn3c2Nc2ccccc2C)cc1
30	2	COC(=O)c1ccc(C=Nc2ccc3ncccc3c2)cc1
31	-0.77	CCCn1c(-c2ccc(Br)cc2)cn2c3c(=O)n(C)c(=O)n(C)c3nc12
32	-0.98	COc1cc(C2C(C(=O)OC3CCCC3)=C(C)NC3=C2C(=O)CCC3)ccc1OCc1ccccc1 (centres undefined)
33	-0.51	O=c1c2ccccc2c(-c2ccc(Cl)cc2)nn1-c1cc(N2CCNCC2)ccc1[N+](=O)[O-]
34	-0.11	Cc1nc2c(C(=O)NC3CCCC(C)C3C)cnn2c(C)c1Cc1ccccc1F (centres undefined)
35	1.2	Cc1ccccc1Cc1c(C)nc2c(C(=O)NCc3ccc(Cl)cc3)cnn2c1C
36	0.34	N#CCCn1ncc2ccccc21
37	-0.91	CCOC(=O)CNC(=O)c1cc2c(=O)n3cccc(C)c3nc2s1
38	2.7	Cc1cccc(Oc2c(C(F)(F)F)oc3c(CN(C)C4CCCCC4)c(O)ccc3c2=O)c1
39	-0.13	COc1ccc(C2C(C(=O)N3CCCC3)CCC(=O)N2c2ccc3c(c2)OCO3)cc1 (centres undefined)
40	-0.75	Cc1cccc(Cc2c(C)nc3c(C(=O)NCc4ccco4)cnn3c2C)c1
41	0.1	O=c1cc(O)c2sc3nc(-c4ccc5c(c4)OCCO5)cc(C(F)(F)F)c3c2[nH]1
42	-0.63	N#Cc1cc2c(nc1SCC(=O)Nc1nc(-c3ccccc3)cs1)CCCC2
43	0.08	O=C(CSc1nnc(-c2ccco2)c(-c2ccco2)n1)Nc1ccc(Cl)cc1
44	-1.5	CCC(C)c1ccccc1OCC(=O)Nc1cccc(-c2nnc(-c3ccco3)o2)c1 (centres undefined)
45	-0.42	CCOC(=O)CCc1c(C)c(C#N)c2nc3ccccc3n2c1-n1ccnc1
46	0.44	CCOC(=O)C1CCN(C(=O)c2c(OC)cccc2OC)CC1
47	-0.86	COc1ccc(Nc2nc(-c3c(C)nc4cc(C)ccn34)cs2)cc1
48	0.86	CCOc1ccc(-c2cc(C(F)(F)F)c(C#N)c(SCC(=O)Nc3ccccc3F)n2)cc1
49	-0.63	O=[N+]([O-])c1ccccc1Oc1cccc(Oc2ccccc2[N+](=O)[O-])c1
50	-0.59	C=CCn1c(SCc2cc3c(cc2Cl)OCO3)nnc1-c1ccco1
51	-0.15	CCOc1ccc(NC(=O)c2ccc(C(C)(C)C)cc2)cc1
52	-0.32	CC(C)N1C(=O)C(O)(CC(=O)c2ccc(Cl)cc2)c2ccccc21 (centres undefined)
53	0.99	O=C1NC(c2ccc(C(F)(F)F)cc2)C(C(=O)c2cccs2)C(O)(C(F)(F)F)N1 (centres undefined)
54	-0.87	CSc1c(C(=O)Nc2ccccc2)ccc2c1C(=O)c1ccccc1C2=O
55	0.04	O=C1c2ccccc2-c2cc(C(=O)n3nnc4ccccc43)ccc21
56	-0.03	Cc1c(C(=O)O)oc2ccc(S(=O)(=O)N3CCCCC3C)cc12 (centres undefined)
57	-0.51	COc1ccc(C(=O)Nc2ccc(-c3nc4ccccc4s3)cc2)cc1Cl
58	-0.22	CCOc1ccccc1N(C)C(=O)Cc1c(C(=O)O)[nH]c2ccc(Cl)cc12
59	-0.11	CCOc1ccc(S(=O)(=O)Nc2ccc3c(c2)c2c(n3S(=O)(=O)c3ccc(OCC)cc3)CC(C)(C)CC2=O)cc1
60	0.6	Cc1cc2ncn(C(=O)CCCOc3ccccc3)c2cc1C

As entered above.
For Measles inh, entry 54 is listed with -0.87
For Measles inh, entry 38 is listed with 2.7
For Measles inh, entry 36 is listed with 0.34
For Measles inh, entry 39 is listed with -0.13
For Measles inh, entry 41 is listed with 0.1
For Measles inh, entry 59 is listed with -0.11

The listing continues.
No.	Measles inh	Molecule
61	-0.49	O=C(Nc1ccc(O)c(-c2nc3ccccc3o2)c1)c1cccc([N+](=O)[O-])c1
62	0.27	O=[N+]([O-])c1ccc(-c2noc(CC3CCCCC3)n2)cc1
63	-1.1	CCCCCSCc1ccc2oc(C(=O)O)cc2c1
64	0.08	O=C(NCc1cccnc1)c1ccc2nc3ccc(Cl)cc3c(=O)n2c1
65	-1.6	CCOc1ccc(C2C(=O)N(C3CCCCC3)CC(=O)N2Cc2ccc(C)cc2)cc1OC (centres undefined)
66	-0.01	O=C(C1CCC1)N1CCc2cc(S(=O)(=O)N3CCN(Cc4ccc5c(c4)OCO5)CC3)ccc21
67	1.2	O=C(NCc1ccccc1Cl)c1ccc(Cn2c(=S)[nH]c3ccc(N4CCOCC4)cc3c2=O)cc1
68	-1.8	c1ccc2c(c1)CC1COCOC21 (centres undefined)
69	0.56	CCc1ccc(OCC(=O)Nc2cc(C)c(C)cc2O)cc1
70	-1.4	O=C(Nc1ccc(Oc2ccccc2)cc1)c1ccc(F)c(S(=O)(=O)N2CCc3ccccc32)c1
71	0.48	CCOC(=O)c1c(NC(=O)COc2ccc([N+](=O)[O-])c(C)c2)sc2c1CCC(C)C2 (centres undefined)
72	0.16	Cc1ccc(Nc2cc(C(=O)NCCCN3CCOCC3)c3ccccc3n2)c(C)c1
73	1.1	CCn1c(=N)n(CC(=O)c2ccc([N+](=O)[O-])cc2)c2ccccc21
74	1.1	CC(CNC(=O)c1ccccc1Cl)NC(=O)c1ccccc1Cl (centres undefined)
75	1.2	Cc1ccc(NC(=O)c2ccc(C(F)(F)F)cc2)cc1
76	1.9	N#Cc1c2c(c(N3CCCCC3)n3c1nc1ccccc13)CCCC2
77	0.7	COc1cc(C2C3=C(CC(C)(C)CC3=O)OC3=C2C(=O)CC(C)(C)C3)ccc1OC(=O)c1ccc(F)cc1
78	-0.72	COc1ccccc1CNc1nc(-c2ccc(Br)cc2)nc2ccccc12
79	0.53	N#Cc1c(-c2ccco2)cc(C2CC2)nc1SCC(N)=O
80	0.51	COc1ccc(Cl)cc1CN1CCN(c2ccc(N3C(=O)CC(C)C3=O)cc2[N+](=O)[O-])CC1 (centres undefined)
81	0.5	Cn1cnnc1SCC(=O)Nc1cccc2ccccc12
82	1.2	COc1cc([N+](=O)[O-])ccc1NC(=O)c1ccc(S(=O)(=O)N2CCCC2)cc1
83	-1.3	CCOc1ncnc2c1[nH]c1ccccc12
84	-0.21	CCC1CCCCN1C(=O)Cn1c(=O)n(Cc2ccccc2Cl)c(=O)c2cc(OC)c(OC)cc21 (centres undefined)
85	-0.27	Cc1ccc2cc3cc(C(=O)N(C)c4ccc(Cl)cc4)sc3nc2c1
86	-0.1	COc1ccc(NC(=O)Cn2c(=O)n(-c3ccc(Cl)cc3)c(=O)c3c4c(sc32)CCCC4)cc1
87	-0.38	COc1ccc(C(=O)NCC2(c3ccccc3)CCCC2)cc1
88	-0.13	CCOC(=O)c1ccccc1NC(=O)c1ccccc1Cl
89	0.05	CCOc1ccccc1NC(=O)CN1CCCN(S(=O)(=O)c2ccc(Br)cc2)CC1
90	-0.83	Cc1ccc(CSCc2ccc(C(=O)NC3CCCCCC3)o2)cc1

Down the list, as entered above.
Entries 75–82 in Measles inh read 1.2, 1.9, 0.7, -0.72, 0.53, 0.51, 0.5, 1.2

Continuation:
No.	Measles inh	Molecule
91	-0.75	Cc1ccc(-c2nnc(Nc3ccc(Cl)cc3)c3ccccc23)cc1S(=O)(=O)N1CCN(C)CC1
92	0.01	COc1cc(C2NC(=O)CCC2[N+](=O)[O-])cc(Cl)c1O (centres undefined)
93	-0.07	CC1CCCCN1CCCNC(=O)c1cc(Sc2ccc(F)cc2)nc2ccccc12 (centres undefined)
94	-1.1	COc1ccccc1NC(=O)CN1CCN(S(=O)(=O)c2ccc(F)cc2)CC1
95	0.46	Cc1cccc(Cn2c(C=Cc3ccccc3)nc3ccccc32)c1
96	3	O=[N+]([O-])c1cc(C(F)(F)F)ccc1Sc1nccn1Cc1ccccc1
97	-0.62	O=C(c1cc2ccccc2cc1O)N1N=C(C(F)F)CC1(O)C(F)F (centres undefined)
98	-0.29	O=C(CSc1nc2[nH]ncc2c(=O)n1-c1ccccc1)NCc1cccc(Cl)c1
99	-0.57	O=C(Cc1ccc(Cl)cc1)Nc1ccc(N2CCCCC2)cc1
100	-0.16	CCOC(=O)c1c(C)oc2c1cc(NS(=O)(=O)c1ccc(Cl)c([N+](=O)[O-])c1)c1ccccc12
101	-0.35	COc1ccc(-c2nc3ccccc3o2)cc1NC(=O)c1ccc(C(C)C)cc1
102	-0.52	CS(=O)(=O)NCCc1ccccc1
103	-1.3	O=C(Nc1ccc2c(c1)OC(F)(F)O2)c1cccnc1
104	0.7	Cc1ccccc1C1C=C(c2cccs2)Nc2nc3ccccc3n21 (centres undefined)
105	0.01	COc1ccc(CCn2c(=O)c3ccccc3n(CC(=O)Nc3ccc(Cl)cc3)c2=O)cc1OC
106	0.33	Cn1c(=O)c(=O)n(C)c2cc(S(=O)(=O)N3CCCCC3)ccc21
107	0.04	C=CCn1c(SCc2ccc(F)cc2)nc2c1c(=O)[nH]c(=O)n2C
108	-1.8	COc1ccccc1Cn1c(=S)[nH]c2cc(C(=O)O)ccc2c1=O
109	-0.94	O=C1CCc2cc(S(=O)(=O)NCc3ccccc3Cl)ccc2N1
110	-0.28	O=C(C(Cc1ccccc1)N1C(=O)c2ccccc2C1=O)N1CCc2ccccc21 (centres undefined)
111	0.44	Cc1cc(=O)[nH]c(Nc2nc3ccccc3[nH]2)n1
112	-0.72	CCC1Oc2ccc(C)cc2NC1=S (centres undefined)
113	2.2	COC(=O)C1=C(C(=O)OC)SC(=C2C(=S)C(C)(C)N(C(=O)Cc3ccccc3)c3ccc(OC)cc32)S1
114	1.2	CC(=O)N1CCc2cc(S(=O)(=O)NC(CC(C)C)C(=O)NC(C)(C)C)ccc21 (centres undefined)
115	0.19	CC1=NN(C(=O)Cc2ccccc2)C(O)(c2ccc(Cl)cc2)C1 (centres undefined)
116	0.43	CCOC(=O)c1ccc(NC(=O)c2cc(C(=O)OC)cc([N+](=O)[O-])c2)cc1
117	-0.25	CCOc1ccc(S(=O)(=O)NC(C)C)c2cccnc12
118	1.2	O=C(Nc1ccc2c(c1)OCCO2)c1ccccc1Cl
119	-0.66	COc1ccc(COC(=O)C2=C(C)NC3=C(C(=O)CCC3)C2c2ccccc2C(F)(F)F)cc1 (centres undefined)
120	0.79	COc1ccc(C(=O)Oc2ccc(C=Nc3ccc(C)cc3)cc2[N+](=O)[O-])cc1
121	-0.21	O=c1nc(N2CCOCC2)ccn1-c1nc(-c2ccccc2)oc1-c1ccccc1
122	2	O=c1c2ccccc2nc2c3ccccc3c(NCCN3CCOCC3)nn12

Source: PubChem BioAssay
